# Bioassay records: PubChem, several laboratories
# Mtb betalactam – beta-lactam sensitization of Mtb H37Rv | M. tuberculosis H37Rv growth with meropenem, percent inhibition; hits of this screen are not shown here | 0.27% of 330,000 active | inhibition, % at 25 µM;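 active means about 74% or more and at least 40 points above the plate without the antibiotic, then above 30% in a dose series; inconclusive means first-round hits that could not be retested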;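 further: growth measured after seven days incubation then overnight dye step; 0% = bacteria only wells and 100% = bacteria with antibiotic; twin plates without the antibiotic show which effects depend on it; some results filed as inactive read as strong as hits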
# Arbovirus inh – antivirals against arbovirus infection; inhibition, % at 10 µM; arbovirus infection cell-based antiviral screen; 0.37% of 200,000 active;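 active means inhibition from about 30%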;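 further: bluetongue infection of BSR cells; cell survival read as ATP light after 72 h; 0% = infected wells without compound and 100% = uninfected wells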
# RecA splice inh – blocks M. tuberculosis RecA intein splicing | cell-free RecA intein splicing, fluorescence | P9WHJ3 | 0.75% of 290,000 active | AID 2221 | inhibition, %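 (about 9 µM by stock and volumes)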; in the data active means inhibition above about 30%; inconclusive means no clear call, values can overlap the other calls;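 further: 0% = vehicle wells and 100% = reference inhibitor control wells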
# Target sequence (P9WHJ3 whole entry, looked up, canonical isoform): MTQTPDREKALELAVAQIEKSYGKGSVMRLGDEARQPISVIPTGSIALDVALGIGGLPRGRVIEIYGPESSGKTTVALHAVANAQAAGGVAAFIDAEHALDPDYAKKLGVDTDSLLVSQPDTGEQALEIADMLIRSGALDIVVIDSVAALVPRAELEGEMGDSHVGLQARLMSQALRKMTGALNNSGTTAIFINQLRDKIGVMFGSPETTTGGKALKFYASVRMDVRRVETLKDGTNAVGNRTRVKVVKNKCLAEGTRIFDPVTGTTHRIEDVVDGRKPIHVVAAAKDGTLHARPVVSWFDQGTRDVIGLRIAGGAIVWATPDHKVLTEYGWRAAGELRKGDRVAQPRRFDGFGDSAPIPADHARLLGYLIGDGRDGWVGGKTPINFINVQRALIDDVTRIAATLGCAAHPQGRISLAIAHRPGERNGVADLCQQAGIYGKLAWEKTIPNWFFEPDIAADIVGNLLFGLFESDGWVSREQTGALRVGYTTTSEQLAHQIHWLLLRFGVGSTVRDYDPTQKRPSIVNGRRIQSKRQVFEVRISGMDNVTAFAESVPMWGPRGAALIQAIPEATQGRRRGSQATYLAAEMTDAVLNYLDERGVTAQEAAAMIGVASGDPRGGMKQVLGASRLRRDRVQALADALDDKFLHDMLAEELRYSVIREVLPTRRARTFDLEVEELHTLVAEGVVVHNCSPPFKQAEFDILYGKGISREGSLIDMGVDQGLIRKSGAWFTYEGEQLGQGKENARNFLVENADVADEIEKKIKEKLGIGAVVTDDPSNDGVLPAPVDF
# YopH inh – blocks Yersinia enterocolitica YopH tyrosine phosphatase. fluorescence Ex485/Em525. inhibition, %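 (about 10 µM by stock and volumes)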. AID 898. 0.16% of 140,000 active;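 active means inhibition of 50% or more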;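 further: controls were vehicle for no effect and minimum signal wells for full effect; inactives centre near -20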
# Mtb H37Rv – M. tuberculosis H37Rv growth inhibitors, H37Rv strain (AID 1626); 0.95% of 220,000 active; inhibition, % at 10 µM; hits with a dose series show IC50 in µM; M. tuberculosis H37Rv growth inhibition; higher % means a stronger effect;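 active means confirmed in a dose series; inconclusive means inhibition above 80% but not taken into the dose series; inactive means below 80% or under 30% at every dose of the series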;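 further: bacteria incubated seven days before Alamar blue readout; 0% = bacteria only wells and 100% = bacteria with antibiotic wells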
# Arbovirus inh repeat – recorded beside Arbovirus inh, whose call it bears; inhibition, %; measured here: 10K subset replicate screen; many hits read low in the repeat;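 first of two repeat runs on a subset; 0% = infected and 100% = uninfected wells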
# * = called active by the depositor; ? = inconclusive; . = not tested or not shown.
SMILES,Mtb betalactam,Arbovirus inh,RecA splice inh,YopH inh,Mtb H37Rv,others
NS(=O)(=O)c1ccc(CCNC(=O)C(c2ccccc2)c2ccccc2)cc1,1,.,2.2,.,.,
CC(=O)c1cccc(Nc2nc(-c3sc(C)nc3C)cs2)c1,28,.,-0.4,.,.,
O=C(CN1CCN(CC(=O)Nc2ccc(-c3ccccc3)cc2)CC1)Nc1ccc(F)cc1,-9,.,-0.4,.,.,
O=C(CNC(=O)c1ccccc1)OCc1nnc(-c2ccccc2)o1,-2,.,-1.0,.,.,
Cc1cc(C)n(CC(C)NC(=O)CCc2nnc(CCc3ccccc3)o2)n1 (configuration not stated),4,5,0.8,.,-1%,
Cc1ccc(-n2nc3c(c2NC(=O)c2c(-c4ccccc4Cl)noc2C)CS(=O)(=O)C3)c(C)c1,5,0,1.6,-3,.,
COc1ccc(CCNC(=O)Cn2cccc2C(=O)c2ccccc2)c(OC)c1,-2,-5,1.9,.,-3%,
Cc1ccc(C(=O)N2CCN(c3ccccn3)CC2)cc1[N+](=O)[O-],14,-1,-1.7,.,12%,
CCCNC(=O)c1ccccc1NC(=O)c1ccc2c(c1)NC(=O)C(C)S2 (configuration not stated),11,.,1.1,.,.,
COc1cc(/C=C2\SC(=S)N(NC(=O)c3ccc(O)cc3)C2=O)ccc1O,1,.,5.9,.,.,
Cc1cccc(NC(=O)/C=C/c2ccc3c(c2)OCO3)n1,0,-4,0.6,-5,-3%,
Cc1cccc(CNC(=O)C2CCC(=O)N(C3CCCC3)C2)c1 (configuration not stated),1,.,-2.6,.,.,
O=C(c1ccc(C(F)(F)F)n(Cc2ccc(Cl)cc2)c1=O)N1CCOCC1,5,.,-2.0,.,.,
Cc1ccc(NC(=S)N2CCCC2)cc1,3,1,-0.6,.,-5%,
O=C(CSc1ncnc2ccccc12)c1ccco1,-2,4,-2.9,.,-2%,
O=C(CCn1cncn1)N1CCCC(N2CCN(c3cccc(C(F)(F)F)c3)CC2)C1 (configuration not stated),-8,.,-1.6,.,.,
C=CCSC1=N/C(=C\C=C\c2ccco2)C(=O)S1,-11,-10,3.5,-19,-13%,
O=C(N/N=C\c1ccncc1)c1ccc(Br)s1,14,.,0.8,.,.,
COc1cccc(CNc2ccccc2O)c1OCc1ccccc1F,13,-1,29,.,>100µM*,
CCOC(=O)N1CCN(c2ccc(Cl)c(Cl)c2)CC1,-7,8,12,-18,6%,
c1ccc(CN2CCOCCOCCOCCOCC2)cc1,-11,.,1.6,.,0%,
CS(=O)(=O)N1CCC(Oc2ccccc2C(=O)N2CCC[C@H]2CO)CC1,-2,.,-0.6,.,.,
CC(C)CCNC(=O)c1ccccc1NC(=O)C1=CSCCO1,4,.,-4.6,.,.,
C=CCNc1cc(C)oc(=O)c1C(=O)CC,-6,3,0.5,.,1%,
Nc1ccc(C(=O)OCCCc2nc3ccccc3[nH]2)cc1,-7,-1,-0.1,-23,-7%,

# The last 4 records of the part above open the next one:
SMILES,Mtb betalactam,Arbovirus inh,RecA splice inh,YopH inh,Mtb H37Rv,others
CS(=O)(=O)N1CCC(Oc2ccccc2C(=O)N2CCC[C@H]2CO)CC1,-2,.,-0.6,.,.,
CC(C)CCNC(=O)c1ccccc1NC(=O)C1=CSCCO1,4,.,-4.6,.,.,
C=CCNc1cc(C)oc(=O)c1C(=O)CC,-6,3,0.5,.,1%,
Nc1ccc(C(=O)OCCCc2nc3ccccc3[nH]2)cc1,-7,-1,-0.1,-23,-7%,
COc1ccc(C2CC(=O)NC3=C2C(=O)CCC3)cc1Cl (configuration not stated),-3,1,-1.7,-11,10%,
CC(C)CN(C(=O)CN1CCN(c2ccc(O)cc2)CC1)c1c(N)n(CC(C)C)c(=O)[nH]c1=O,-12,6,-3.6,-23,-13%,
COc1ccc(NC(=S)N2CCN(C(=O)C3CCCO3)CC2)c(OC)c1 (configuration not stated),0,1,-0.8,-20,2%,
COc1ccc(OC)c(NC(=O)c2ccc(OCC(=O)N3CCOCC3)c(OC)c2)c1,1,.,-1.9,.,.,
CCOc1ccc(Br)cc1/C=N/O,8,-1,-0.8,3,-4%,Arbovirus inh repeat=0
COc1ccccc1OC(C)C(=O)Nc1nc(-c2ccc(S(=O)(=O)N3CCOCC3)cc2)cs1 (configuration not stated),7,-3,0.1,12,7%,
Cc1cnc(C(=O)OCC(=O)NC(=O)NC(C)C)cn1,-4,1,0.2,-34,-1%,
Cc1ccc(Cn2cc(C=O)c3ccccc32)cc1,7,.,5.9,.,.,
S=c1[nH]nc(-c2ccc3ccccc3n2)n1Cc1ccccc1,7,13,-0.9,-23,5%,
CCC(CC)c1nnc(NC(=O)CCc2ccccc2OC)s1,8,.,-1.5,.,.,
CC(=C/c1ccc(C(C)C)cc1)/C=N/NC(=O)c1ccncc1,99,-7,-4.4,-12,?,
Cc1ccc(S(=O)(=O)N2CCC(=O)N(C(COCc3ccc(Cl)cc3)Cc3ccccc3)CC2)cc1 (configuration not stated),-2,-13,1.6,-1,8%,
CCCCn1c(CN2CCN(C(=O)OCC)CC2)nc2c1c(=O)n(C)c(=O)n2C,7,-2,0.6,-30,-1%,
O=C(CC1C(=O)NCCN1Cc1cccc(Oc2ccccc2)c1)NCCc1ccncc1 (configuration not stated),-1,-3,1.5,.,-1%,
O=C(c1ccco1)N1CCCN(Cc2nc(-c3cccs3)no2)CC1,-2,0,1.0,.,0%,
O=c1[nH]nc(-c2ccc(F)cc2)cc1Cc1ccccc1,-2,.,1.3,.,0%,
Cc1cc(CCN2CCC(=O)NC2=S)ccc1OC(C)C,-8,4,-2.1,13,-5%,
COc1cccc(C2NC(CCSC)(C(=O)O)C3C(=O)N(C(C)C)C(=O)C23)c1O (configuration not stated),4,-3,.,-35,-10%,Arbovirus inh repeat=7
O=c1c2c(-c3ccccc3)csc2nc2n1CCC2,-1,-4,0.4,-36,-7%,
CCOC(=O)c1ccc(CNC(=O)Cn2nnc(-c3cccc(C)c3)n2)o1,-6,-1,1.3,.,-4%,
COCCN1CCN(C(=O)c2ccc3oc(CCCc4ccccc4)nc3c2)CC1,-22,.,-1.8,.,.,
CSc1nnc(C2CCN(CC(=O)Nc3ccccc3N3CCOCC3)CC2)n1C(C)C,-3,.,6.7,.,.,
COc1ccccc1C(=O)Nc1cc2cc(Br)ccc2oc1=O,4,-1,0.8,12,.,
Cc1ccc(-c2nnc(COC(=O)c3ccco3)o2)cc1,41,.,2.6,.,.,
O=c1[nH]c(=O)n(Cc2ccccc2Cl)c(O)c1/C=C1/C=CC=N1,100,-5,-2.1,.,<0.39µM*,

# The final three entries of the section above come first, to join the parts.
SMILES,Mtb betalactam,Arbovirus inh,RecA splice inh,YopH inh,Mtb H37Rv,others
COc1ccccc1C(=O)Nc1cc2cc(Br)ccc2oc1=O,4,-1,0.8,12,.,
Cc1ccc(-c2nnc(COC(=O)c3ccco3)o2)cc1,41,.,2.6,.,.,
O=c1[nH]c(=O)n(Cc2ccccc2Cl)c(O)c1/C=C1/C=CC=N1,100,-5,-2.1,.,<0.39µM*,
COc1ccc(Cl)cc1-c1nc(-c2ccc(Br)o2)no1,1,-10,3.9,-30,.,
Cc1ccc(NC(=O)C2C3C=CC4(O3)C2C(=O)N(CCCN2CCCCC2)C4C(=O)NC2CCCCC2)cc1C (configuration not stated),-6,.,0.3,.,.,
O=C(c1cccc(F)c1)N1CCN(C(=O)C2CC2)CC1,-3,-3,-0.3,-37,3%,
C=CCOC(=O)C1=C[C@H](c2coc3ccccc3c2=O)C[C@H](OCCCCO)O1,-7,.,-3.0,.,-14%,
O=C(c1ccco1)N1CCN(C(=O)c2oc(=O)c3ccccc3c2-c2ccccc2)CC1,-6,11,0.6,-40,-7%,Arbovirus inh repeat=1
COc1ccc(C=O)cc1OC(=O)C1(C)Cc2ccccc2C(=O)O1 (configuration not stated),-6,8,0.6,.,1%,
CCN1CCN(CCCNC(=O)Cn2cc3c(n2)CCCC3)CC1,-5,3,-0.9,-53,0%,Arbovirus inh repeat=3
O=C(Nc1nc2c(s1)C(=O)CCC2)c1ccccc1,-3,-2,-2.1,-32,5%,
CCC(CO)NC(=O)c1ccccc1C(F)(F)F (configuration not stated),-10,.,4.9,.,8%,
O=C1C2C3C=CC(C4CC34)C2C(=O)N1/N=C/c1ccc(-c2cccc([N+](=O)[O-])c2)o1 (configuration not stated),-8,16,1.7,-20,0%,
CC1=C(C)SC(=C(C#N)c2nnc(N3CCOCC3)n2-c2ccccc2)S1,14,.,-0.6,.,-5%,
Cc1ccc(NC(=O)C2CC(=O)n3ncnc3N2)cc1C (configuration not stated),-6,0,1.4,.,6%,
CCCC1=C(C(=O)OCC)C(c2cc(Cl)cc(OC)c2OCc2ccccc2)NC(=O)N1 (configuration not stated),-11,-9,1.7,-8,2%,
CC1CCN(S(=O)(=O)c2ccc3c(c2)N(CC(=O)NCCCN2CCCC(C)C2)C(=O)CS3)CC1 (configuration not stated),1,.,2.8,.,.,
Cc1ccc2c(C)c(C(=O)NCC(C)(C)N3CCOCC3)oc2c1C,-1,.,-13,.,.,
CCOc1cccc(C(=O)Nc2cccnc2)c1,-7,-1,-1.1,-40,-10%,
COc1ccc(/C=N/n2cnnc2SCc2ccc(OC)cc2)cc1,0,4,1.3,2,1%,Arbovirus inh repeat=0
COCCn1c(SCC(=O)N2CCCCCC2)nc2c([nH]c3ccccc32)c1=O,-6,.,2.9,.,.,
NS(=O)(=O)c1ccc(NC(=O)CSc2cn[nH]n2)cc1,7,.,6.2,.,.,
O=CNC1CCCc2c1[nH]c1ccc(Cl)cc21 (configuration not stated),5,5,-1.8,-37,-7%,
CCc1cc(=O)oc2cc(OCC(=O)NCCCN3CCOCC3)c(Cl)cc12,4,.,0.3,.,.,
CCCC(C(=O)NC(C)(C)C)N(CC1CCCO1)C(=O)CNS(=O)(=O)c1ccc(F)cc1 (configuration not stated),-4,.,1.9,.,.,
Cc1ccccc1CS(=O)(=O)c1ccc(C(=O)N2CCC(C)CC2)cc1[N+](=O)[O-],0,1,-4.0,.,-1%,
COCCOC(=O)C1=C(C)NC2=C(C(=O)CCC2)C1c1ccc2c(c1)OCO2 (configuration not stated),1,1,0.7,-5,-6%,Arbovirus inh repeat=-4
COc1ccc(C(=O)N2CCN(CCNC(=O)C(=O)Nc3ccc(F)cc3)CC2)cc1,-2,.,1.4,.,.,

# Continuation:
SMILES,Mtb betalactam,Arbovirus inh,RecA splice inh,YopH inh,Mtb H37Rv,others
CC(SCc1ccccc1)C(=O)Nc1ccccc1 (configuration not stated),-4,.,-1.0,.,.,
CCN1CCN(C(c2cccs2)C(C)NS(=O)(=O)c2ccc(Br)cc2)CC1 (configuration not stated),-9,-11,-0.4,-46,.,
O=C(Nc1cccc(-c2nc3ncccc3o2)c1)c1ccccc1,43,16,1.1,.,4%,
O=C(COC(=O)c1cc(C(F)(F)F)cc(C(F)(F)F)c1)NCc1ccc(Cl)cc1,8,2,0.2,-41,8%,
CCCCNC(=S)NCc1ccc2[nH]c3c(c2c1)CCCC3,-3,8,-13,.,5%,
C/C(=N/NC(=O)c1ccc2c(c1)OCCO2)c1ccc([N+](=O)[O-])cc1,4,.,0.3,.,3%,
CC(=O)Nc1ccc(S(=O)(=O)N(C)CC(=O)OC(C)C(=O)NC2CCCCC2)cc1 (configuration not stated),3,.,-1.3,.,.,
CCCCn1c(SCC(=O)NCc2ccc(OC)c(C(=O)O)c2)nc2cc(S(N)(=O)=O)ccc21,3,.,-0.4,.,.,
COc1cccc(CNc2nc(-c3cccnc3)nc3ccccc23)c1,1,-2,10,.,2%,
CCc1cc(C(=O)O)c(NC(=O)/C=C/c2ccc(OC)cc2)s1,.,.,1.9,.,8%,
O=C(O)Cc1ccc(NC(=O)c2ccc3c(c2)C(=O)N(Cc2ccco2)C3=O)cc1,-12,.,1.7,.,.,
CC(=O)N1CCCc2cc(S(=O)(=O)NC(C(=O)NC3CCCCC3)C(C)C)ccc21 (configuration not stated),1,-2,0.1,-19,-4%,
CCOC(=O)C1=C2c3cc(OC)c(OC)cc3CC(C)(C)N2C(=O)C1=O,-3,4,-5.6,-19,0%,
CC(C)CCNC(=O)c1cc(-c2ccncc2)nc2ccc(S(=O)(=O)N3CCOCC3)cc12,0,-3,-1.9,6,-13%,
CCCS(=O)(=O)N1CCN(C(=O)COc2ccc(OC)cc2)CC1,-7,1,-1.4,-25,-1%,
CN(CC(=O)N1CCN(C2CCCCC2)CC1)S(=O)(=O)c1cccc2nsnc12,3,10,-0.2,-15,-2%,
Cc1ccc(C(=O)N(CC(=O)NC2CCCCC2)c2ccccc2C)s1,7,-6,6.5,9,7%,
CCOc1ccc2[nH]c3c(N4CCN(C(=O)c5ccco5)CC4)ncnc3c2c1,10,.,.,.,21%,
Cc1ccc(OP(=O)(NCc2ccccc2)Oc2ccc(C)cc2)cc1,23,-4,2.9,-19,16%,

# An excerpt (hit frequency here may not be typical).
